From PubChem BioAssay
Sfp PPTase inh: qHTS Assay for Inhibitors of Bacillus subtilis Sfp phosphopantetheinyl transferase (PPTase); hit rate 3.5% among 310,000; Biochemical Sfp PPTase activity, qHTS; AID 1490, 2009; Potency, µM, for inactives: max response, negative = inhibition, usual class: inhibitors; active means well fitted inhibition curve with a large enough effect; inconclusive means small, poorly fitted or top-dose-only effect, or another doubt; inactive means no such curve, though single readings can be large or run the other way;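 further: the enzyme is Sfp with the accession as filed and its product quenches rhodamine fluorescence; potency means the concentration at half of the fitted maximal effect; 0% = enzyme reaction without inhibitor and -100% = no enzyme wells; top concentration of the series not given in the record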
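Fluorescence-quenching assay: 15 nM Sfp-PPTase preincubated 15 min at room temperature with compound, then 5 uM rhodamine-CoA and 12.5 uM BHQ-2-labelled YbbR peptide added. Fluorescence (ex 525/em 598 nm) read at start and after 30 min; difference gives rate.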
Menin MLL FP FL: qHTS Assay for Inhibitors Targeting the Menin-MLL Interaction in MLL Related Leukemias: Competition With Fluorescein Labeled MLL-derived Peptide. Fluorescence polarization, fluorescein-MLL peptide displacement from menin. FP activity change, % at 61.4 µM. 290,000 tested, under 10 active; inconclusive = falling polarisation curve, or a change in total fluorescence; inactive = total fluorescence flat and polarisation flat or rising; no compound was filed as active; the % refers to the polarisation; negative = inhibition;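 further: % of control where 0% means no effect; inhibitors lower the polarisation; unlabelled MLL peptide was the positive control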
TRPV1 PAM: HTS Assay for Compounds that Act as Potentiators of the Vanilloid Receptor 1; TRPV1-expressing cells, Fluo-8 calcium influx, capsaicin EC20 potentiation; host cell line not named in the record; control for the full effect not named in the record; potentiation, % at 8.33 µM; AID 540277, 2011; hit rate 0.02% among 320,000; active means potentiation above 80%; inconclusive means 30% to 80%; inactive means below 30%; further: 0% is about no effect
Target sequence (Q8NER1 whole entry, looked up): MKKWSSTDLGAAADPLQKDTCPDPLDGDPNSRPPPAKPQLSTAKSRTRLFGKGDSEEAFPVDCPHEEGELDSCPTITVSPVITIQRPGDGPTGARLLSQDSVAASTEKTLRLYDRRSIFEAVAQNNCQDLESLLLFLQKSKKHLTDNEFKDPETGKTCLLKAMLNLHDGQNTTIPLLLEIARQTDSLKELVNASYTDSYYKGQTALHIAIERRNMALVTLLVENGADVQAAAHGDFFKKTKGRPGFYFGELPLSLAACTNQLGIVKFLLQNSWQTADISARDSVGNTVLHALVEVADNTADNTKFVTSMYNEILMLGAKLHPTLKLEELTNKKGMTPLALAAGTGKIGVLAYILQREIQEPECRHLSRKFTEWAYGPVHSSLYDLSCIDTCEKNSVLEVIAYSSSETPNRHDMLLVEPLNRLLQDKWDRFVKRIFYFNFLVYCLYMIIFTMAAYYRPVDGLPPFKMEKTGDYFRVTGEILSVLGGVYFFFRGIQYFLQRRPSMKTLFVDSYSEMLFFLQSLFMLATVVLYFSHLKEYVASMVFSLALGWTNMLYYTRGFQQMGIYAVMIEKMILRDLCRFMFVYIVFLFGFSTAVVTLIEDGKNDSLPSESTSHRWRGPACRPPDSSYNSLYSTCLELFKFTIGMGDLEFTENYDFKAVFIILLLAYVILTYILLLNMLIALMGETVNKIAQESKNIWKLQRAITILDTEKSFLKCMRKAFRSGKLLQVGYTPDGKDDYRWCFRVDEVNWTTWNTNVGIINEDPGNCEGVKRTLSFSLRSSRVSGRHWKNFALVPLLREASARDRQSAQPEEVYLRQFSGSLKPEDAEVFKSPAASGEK
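Fluo-8 calcium influx in TRPV1-expressing cells, kinetic read (ex 480/em 520 nm). Compound added and read 3 min for agonist activity, followed by capsaicin at EC20 final and 2 min further read for enhancement.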
ClpP mod: qHTS Assay for Activators of ClpP. purified B. subtilis ClpP, FRET peptide cleavage, 20 min. Potency, µM (doses to about 57.5 µM), inactives show at the top dose activity change, negative = active. hit rate 1.9% among 340,000. AID 651965, 2013; active = well fitted falling curve with a large enough effect; inconclusive = small, poorly fitted or top-dose-only effect; inactive = no such curve, though single readings can be large or run the other way; further: potency means the concentration at half of the fitted maximal effect; the source files actives as falling curves though it sought activators and does not explain the sign; nearly all actives have a fitted effect of over 65% in size; many hits overshoot -100%
Target sequence (P80244 whole entry, looked up): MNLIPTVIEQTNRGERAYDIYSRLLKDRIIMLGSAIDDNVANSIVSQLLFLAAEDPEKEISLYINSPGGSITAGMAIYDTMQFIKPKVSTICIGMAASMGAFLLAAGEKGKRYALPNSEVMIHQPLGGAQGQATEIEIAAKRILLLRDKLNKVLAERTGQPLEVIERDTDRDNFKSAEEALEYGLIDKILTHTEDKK
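ClpP 10 microg/mL final, pH 8 Tris/KCl buffer with BSA, glycerol, Tween-20; compound pinned in; FRET-FV substrate; RT 20 min; Ex320/Em430; ΔFRET vs ADEP 5.8 microM, DMSO, no enzyme.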
gsp ag: qHTS for Agonist of gsp, the Etiologic Mutation Responsible for Fibrous Dysplasia/McCune-Albright Syndrome: qHTS; gsp mutant cells, cAMP HTRF, 30 min; control for the full effect not named in the record; Potency, µM (titrated, usually from 76.9 µM), inactives show top-dose activation (cAMP increase), most hits filed as activators; hit rate 0.13% among 340,000; AID 624287, 2012; active = well fitted activation curve with a large enough effect; inconclusive = small, poorly fitted or top-dose-only effect, or another doubt; inactive = no such curve, though single readings can be large or run the other way; cell line not stated here;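 further: phosphodiesterase inhibitor Ro 20-1724 added with compounds to block cAMP breakdown; potency means the concentration at half of the fitted maximal effect; nearly all actives have a fitted effect of over 60% in size; about a fifth of the inactives were tested at one dose only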
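Cells in DMEM/10% FBS with G418 were pretreated with compounds in DMSO plus […] (300 uM stock) for 30 min at 37C. cAMP was measured by HTRF (cAMP-d2 plus anti-cAMP antibody-K) after 30 min at room temperature.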
CtBP-E1A blk: qHTS Assay for Inhibitors of the CtBP/E1A Interaction | AlphaScreen GST-E1A/His-CtBP binding, 1536-well; active compounds read low; control for the full effect not named in the record | activity change, % (concentration not given with the values) | hit rate 0.49% among 340,000 | AID 651724, 2012; in the data active means activity change below about -65%; inconclusive means about -30% to -65%; inactive means above about -30%; further: on the % scale 0 is the no-effect control and ±100 the full control effect
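AlphaScreen with 125 nM GST-E1A and 125 nM His-CtBP (5X stocks) in Tris pH 8.0, 300 mM NaCl, BSA, Tween 20, TCEP. Compounds preincubated 2 h at 37 deg C, then glutathione donor/nickel acceptor beads added for 1 h at 37 deg C in dark.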
gsp antagonist: qHTS for Antagonists of gsp, the Etiologic Mutation Responsible for Fibrous Dysplasia/McCune-Albright Syndrome: qHTS | gsp-mutant cells, cAMP HTRF, 30 min; control for the full effect not named in the record | Potency, µM (highest dose often 76.9 µM), for inactives: at the top dose activity change, negative = inhibition, hits mostly inhibitors | hit rate 0.4% among 340,000; active = falling curve of any shape with a large fitted effect; inconclusive = falling curve, mostly with a smaller effect; inactive = flat or rising curve; cell line not stated here;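 further: intracellular cAMP measured with PDE inhibitor Ro 20-1724 present during compound exposure; potency means the concentration at half of the fitted maximal effect; on the % scale 0 is the no-effect control and ±100 the full control effect; nearly all actives have a fitted effect of over 65% in size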
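Cells, 2000/well, grown 16–24 h in DMEM 10% FBS with 0.5 mg/ml G418, then compounds plus […] (300 uM addition stock), 30 min at 37C. cAMP read by HTRF (cAMP-d2 and anti-cAMP antibody-K in lysis buffer) after 30 min RT.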
Active calls of the source: *; i = inactive; u = inconclusive; x = not tested or not shown; [ ] = remark or other dose.

SMILES	Sfp PPTase inh	Menin MLL FP FL	TRPV1 PAM	ClpP mod	gsp ag	CtBP-E1A blk	gsp antagonist
O=C(Cc1ccc(F)cc1)N1CCN=C1SCc1cccc([N+](=O)[O-])c1	4%	-0.6	-1	x	-2%[15.4 µM]	-3	7%
CC(=O)N1CCSc2ccc(S(=O)(=O)Nc3ccccc3C)cc21	6%	x	-25	-0.5%	-195%[inhibitor]	-16	-2%
O=S(=O)(c1ccc(Cl)cc1)N1CCCc2ccccc21	-8%	-0.2	6	-1.3%	-21%	20	-16%
CN(C=O)CP(=O)(O)CN1CCCCC1	1%	6.7	7	x	x	x	x
CC(C)(C)C(=O)CN1C(=O)NC(C)(Cc2ccc3c(c2)OCO3)C1=O (centres undefined)	10%	1.8	11	-1.5%	2%[15.4 µM]	-3	-12%
CCCC(C)c1nc(C(N)=O)c2[nH]c(=O)n(-c3ccc(OC)cc3OC)c2n1 (centres undefined)	8%	-0.5	12	-1.8%	u	x	-1%
N#Cc1c(Cl)c(Cl)c2nnc(-c3ccc(Br)cc3)n2c1Cl	3%	9.7	10	x	x	x	x
CCOc1ccccc1CN1CCNC(=O)C1CC(=O)NCCN1CCOC1=O (centres undefined)	11%	-9.4	-19	-2.2%	u	8	9%
Cc1ccc(S(=O)(=O)N2CCOC2CNC(=O)C(=O)NCc2ccc(Cl)cc2)cc1 (centres undefined)	9%	x	-5	-1.6%	u	-14	3%
S=C(NCCCn1ccnc1)Nc1cccc(Cl)c1	4%	1.1	14	x	u	-5	-4%
C#CCN1C=CC(=O)[C@@H](OC(=O)NCCC)[C@H]1c1ccccc1Br	x	x	x	-0.5%	x	2	-4%
COc1ccc(Br)cc1S(=O)(=O)Nc1cccc(C)n1	19%	0.1	3	x	33%[15.4 µM]	-5	-38%
O=C(COC(=O)CC1CC2CCC1C2)Nc1ccc(F)cc1Cl (centres undefined)	x	x	x	3.7%	-5%	x	4%
COc1ccc(Cl)cc1C(=O)Nc1ccc(OCC(=O)N2CCOCC2)cc1	-11%	x	-14	5.6%	-17%	-3	-4%
CN(Cc1c(C(=O)N/N=C/c2ccc(F)cc2)nnn1-c1nonc1N)C1CCCCC1	11%	-2.7	-12	2.2%	-21%	x	-2%
CCOc1cc(S(=O)(=O)n2c(C)nc3ccccc32)ccc1F	20%	3.1	9	-1.4%	4%	-3	5%
Cc1ccc(CC(=O)Nc2ccc(S(=O)(=O)Nc3ncccn3)cc2)cc1	-13%	-3.3	16	x	-53%[inhibitor]	7	2%
Cc1cc(C)cc(Nc2c(F)c(F)c(F)c(F)c2C(=O)O)c1	13%	-1.0	17	x	8%	-10	-7%
O=C(N/N=C/c1ccc2c(c1)OCO2)c1ccc(Cl)cc1Cl	10%	-3.8	u	x	-25%	-8	6%
CCc1c(C)nc2c(C)cccc2c1SCCC#N	-27%	0.7	-21	-4.2%	u	4	1%
COc1ccc2c(c1)c(=O)oc1c(C)c(OCC(=O)N3CCc4ccccc4C3)ccc12	7%	3.0	-10	-19%	17%[15.4 µM]	-3	-2%
C/C(CC(=O)Nc1ccc2c(c1)OCCO2)=N\NC(=O)COc1ccc(C)cc1Br	2%	-2.6	13	x	u	-5	-4%
COC(=O)c1[nH]c(C)c(/C(O)=C2\C(=O)C(=O)N(CCN3CCOCC3)C2c2ccccc2OC)c1C (centres undefined)	-1%	-0.8	0	0.1%	2%	4	-5%
C=CC[C@@H](CC(=O)N(CCO)Cc1ccccc1)C(=O)NCCOC(=O)[C@H](CC=C)CC(=O)OC(C)(C)C	x	x	x	1.5%	14%	0	-2%
CC(C)NCC(O)COc1ccc2c(c1)CCC2 (centres undefined)	5%	-2.2	2	-0.6%	-3%	8	17%

(further entries)
SMILES	Sfp PPTase inh	Menin MLL FP FL	TRPV1 PAM	ClpP mod	gsp ag	CtBP-E1A blk	gsp antagonist
NC(Cc1c[nH]c2ccccc12)C(=O)Nc1ccccc1 (centres undefined)	x	x	x	0.0%	x	-1	1%
CCOc1ccc(S(=O)(=O)N(CC(=O)N/N=C/c2ccc(-c3ccc([N+](=O)[O-])cc3)o2)c2ccccc2)cc1	-20%	4.6	3	1.4%	u	-6	-6%
CCOC(=O)c1sc2nc(C)nc(NCCc3ccccn3)c2c1C	-13%	1.9	-12	4.3%	0%	0	u
COc1ccc(CCNC(=O)C2CCN(C(=O)c3ccc(Cl)cc3)CC2)cc1OC	7%	4.7	0	1.3%	2%	7	3%
CCN1CCN(c2nc3c(c(=O)[nH]c(=O)n3C)n2CCSc2nc3ccccc3s2)CC1	-11%	2.4	x	-0.4%	-34%[inhibitor]	1	-4%
COc1ccc(Nc2ncnc3sc(-c4ccccc4)cc23)c(OC)c1	-13%	0.1	-4	-22%	23%	x	u
C[C@H](NC(=O)[C@@H]1CCC(=O)N1Cc1ccco1)c1ccccc1	-12%	-2.8	6	1.0%	-22%	x	11%
Cc1ccc(C)c(S(=O)(=O)c2c(C)cc(C)nc2Cl)c1	10%	-0.4	1	-0.9%	0%	0	-9%
COC(=O)c1cc(NC(=O)CN2CCC(C(N)=O)(N3CCCCC3)CC2)cc(C(=O)OC)c1	13%	4.9	-14	-2.9%	21%	u	12%
CC1CN(Cc2cc(=O)oc3cc(O)c(Cl)cc23)CC(C)O1 (centres undefined)	-6%	-3.7	-1	4.4%	1%	x	-10%
CCCn1nc(NC(=O)CC)c2cc3cccc(C)c3nc21	14%	-2.7	8	-15%	12%	x	-24%
COC(=O)C1=C(C)Nc2nc3ccccc3n2C1c1ccccc1F (centres undefined)	18%	6.1	-17	x	3%	0	0%
CSc1ccc(CN(C)C(=O)c2ccc(S(=O)(=O)Nc3ccccc3)cc2)cc1	x	x	7	-2.9%	4%	-4	-9%
CC1(C)Cc2c(sc3c2c(=N)n(Cc2ccco2)c(=O)n3Cc2ccc(F)cc2)CO1	-6%	9.6	9	2.4%	5%	-8	-14%
CCCOc1ccc(/C=N/Nc2ccccc2[N+](=O)[O-])c(O)c1	8%	3.3	-5	0.8%	-21%	-28	16%
Cc1ccc(S(=O)(=O)N(C)Cc2cc3ccccc3[nH]c2=O)cc1	-5%	0.4	x	-13%	-16%	11	-12%
OC(CN1CCN(c2ccccc2Cl)CC1)c1ccccc1 (centres undefined)	8%	1.1	0	x	9%	4	-1%
COc1ccc(CCNS(=O)(=O)CCNC(=O)c2ccc(OC)cc2)cc1	x	x	-4	x	9%[15.4 µM]	1	-3%
CS(=O)(=O)N1N=C(c2ccco2)CC1c1ccccc1Cl (centres undefined)	5%	8.1	1	x	17%	2	6%
Cn1cccc1C1CCCN1CC(=O)Nc1c(Cl)cc(Cl)cc1Cl (centres undefined)	x	x	x	x	1%	-5	-7%
CCOC(=O)C1(Cc2ccccc2C)CCCN(C(=O)CSC)C1 (centres undefined)	x	x	x	x	19%	5	5%
CC(C)(C)c1ccc(OCCn2nc(C(=O)O)c3ccccc3c2=O)cc1	6%	1.6	-23	x	-22%	-3	u
O=C(CCN1CCN(c2ccccc2)CC1)c1ccc(Cl)cc1	2%	-0.9	-6	-0.7%	2%	-11	-1%
Cc1ccc(C2C(C(=O)c3sc(-c4ccccc4)nc3C)=C(O)C(=O)N2CCN(C)C)o1 (centres undefined)	x	x	x	0.1%	-6%[15.4 µM]	-1	9%
Cc1cccc(NC(=O)c2c(F)c(F)c(F)c(F)c2F)c1	-9%	0.8	-14	3.3%	-10%	2	1%

Next section:
SMILES	Sfp PPTase inh	Menin MLL FP FL	TRPV1 PAM	ClpP mod	gsp ag	CtBP-E1A blk	gsp antagonist
O=C(CSc1nc2ccccc2s1)NCCOc1ccccc1	16%	1.1	-17	0.8%	-27%	6	4%
COc1ccc(NC(=S)Nc2cccc(C(C)=O)c2)cc1OC	-24%	0.2	-2	x	-9%[15.4 µM]	-9	x
Cc1cccc(-c2noc(CNC(=O)c3ccco3)n2)c1	7%	5.0	12	2.4%	-41%[inhibitor]	8	7%
CC(C)(C)C(=O)NC(=S)Nc1ccccc1C(=O)NC1CCCCC1	-4%	0.4	0	0.6%	6%	x	4%
COc1cc2c(cc1OC)C1O[C@](CCCCN3C(=O)c4ccccc4C3=O)(C2)OC2=C1C(=O)OC1(CCCCC1)C2	-13%	-0.5[11.7 µM]	i	x	x	x	x
COC(=O)C1=C(CS(=O)(=O)c2cc(OC)ccc2OC)NC(=O)NC1c1ccc(O)c(OC)c1 (centres undefined)	-1%	1.9	5	0.5%	9%	3	7%
O=C(CSc1n[nH]c(-c2ccccc2Br)n1)NCCN1C(=O)CSC1=O	12%	6.4	25	-3.6%	-28%	-2	-1%
Cc1ccc(CN2CCSc3ccc(C(=O)NCc4ccco4)cc32)cc1	7%	1.6	14	x	17%	-15	-13%
COc1cc(SC)ccc1C(=O)N1CCN(c2ccccc2OC)CC1	20%	0.5	0	x	-18%	-3	15%
CC1CN(C2CCCCC2)C(=O)NC1=O (centres undefined)	x	x	x	x	-13%	2	15%
CC(C)CNC(=S)N1CCC(NC(=O)c2ccco2)CC1	21%	0.7	29	x	11%	10	8%
CCOc1cc(C#N)c(NC(=O)c2ccco2)cc1OCC	4%	3.5	19	-2.8%	11%	2	2%
O=C(NCc1ccc(Cl)cc1)c1ccc(Cn2cc(C(F)(F)F)ccc2=O)cc1	16%	1.1	-8	-1.0%	-5%	-2	-2%
CC1CCN(C(=O)CSc2nncn2-c2ccccn2)CC1	u	1.0	8	0.4%	0%	4	-4%
CC(C)(C)OC(=O)C[C@@H]1C/C=C\C[C@H](CC(=O)NCCO)C(=O)N[C@H](Cc2ccccc2)COC1=O	x	x	x	-1.1%	x	5	12%
O=C(Oc1cccc(-n2cnnn2)c1)C1CCCCC1	9%	0.6	29	0.8%	u	6	5%
COc1cc(Cl)c(CC(=O)c2c[nH]c3ccccc23)cc1OC	8%	-7.3	-11	x	11%	-11	3%
